# RE007 growth inh = less growth of the S. pombe RE007 Vpr strain; AID 651644; S. pombe RE007 Vpr strain, BacTiter-Glo ATP luminescence, 24 h; control for the full effect not named in the record; Potency, µM (titrated, usually from 92.2 µM), for the others: at the top dose activity change, negative = less growth; 0.21% of 360,000 active; active = well fitted falling curve with a large enough effect; inconclusive = small, poorly fitted or top-dose-only effect; inactive = no such curve, though single readings can be large or run the other way;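 note: % is set by controls: 0 for no effect and ±100 for the full control effect; nearly all actives have a fitted effect of over 50% in size; the assay follows cell death caused by Vpr and the record does not say whether a fall means rescue or toxicity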
#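 Fission yeast RE007 carrying one integrated HIV-1 vpr copy, seeded at OD 0.01 in PMG+AL medium with 23 nL pinned compound. Grown 24 h at 30 degrees; viability read by BacTiter-Glo luminescence after 5 min.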
# LASV entry inh = blocks Lassa virus binding to or entry into cells | Lassa virus pseudotype entry inhibition, cell reporter; control for the full effect not named in the record | 1.2% of 300,000 active | Potency, µM (doses to about 37.9 µM), for the others: at the top dose activity change, negative = inhibition, actives largely listed as inhibitors; active means well fitted inhibition curve with a large enough effect; inconclusive means small, poorly fitted or top-dose-only effect, or effect the other way; inactive means flat fitted curve, though single readings scatter; tested in HEK293 cells; note: % is set by controls: 0 for no effect and ±100 for the full control effect; nearly all actives have a fitted effect of over 50% in size; luciferase read-out
# SARS PLpro yeast = blocks SARS-CoV papain-like protease in a yeast assay; S. cerevisiae expressing SARS-CoV PLpro, growth rescue; control for the full effect not named in the record; Potency, µM (doses to about 32.9 µM), for inactives: at the highest dose activity, positive = growth rescue; 0.19% of 330,000 active; AID 485353; note: 0% is about no effect; nearly all actives have a fitted effect of over 55% in size; growth read by luminescence after 48 h
# Cruzain inh noDet = inhibitors of Trypanosoma cruzi cruzain without detergent | purified cruzain, Z-FR-AMC fluorescence, no detergent | Potency, µM, inactives show max response, negative = inhibition, actives largely listed as inhibitors | P25779 | 2.3% of 200,000 active | AID 1476; active = well fitted curve in the direction sought with a large enough effect; inconclusive = small, poorly fitted or top-dose-only effect, or another doubt; inactive = no such curve, though single readings can be large; an effect the other way counts as inactive or inconclusive;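 note: plate controls were enzyme without inhibitor for no effect and buffer without enzyme for full effect; nearly all actives have a fitted effect of over 40% in size; top concentration of the series not given in the record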
# Target sequence (P25779 123-467 limits assumed): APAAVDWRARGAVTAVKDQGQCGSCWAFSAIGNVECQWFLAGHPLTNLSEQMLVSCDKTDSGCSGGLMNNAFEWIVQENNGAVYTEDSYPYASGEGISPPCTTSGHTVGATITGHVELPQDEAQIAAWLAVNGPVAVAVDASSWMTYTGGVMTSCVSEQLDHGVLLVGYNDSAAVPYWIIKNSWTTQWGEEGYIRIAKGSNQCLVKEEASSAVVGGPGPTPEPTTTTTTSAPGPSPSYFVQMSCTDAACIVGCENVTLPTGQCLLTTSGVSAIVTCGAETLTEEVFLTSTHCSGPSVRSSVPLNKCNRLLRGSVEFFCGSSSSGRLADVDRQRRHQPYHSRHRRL
#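 Detergent-free condition (0.00005% Triton X-100) in acetate buffer pH 5.5 with DTT. 1.5 nM enzyme and compound were pre-mixed 15 min, then 2 uM Z-FR-AMC substrate added; reaction progress from fluorescence change between first and third reads (60 s).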
# Cruzain Triton = inhibitors of Trypanosoma cruzi cruzain with detergent | P25779 | purified cruzain, Z-FR-AMC fluorescence, 0.01% Triton | Potency, µM, for inactives: max response, negative = inhibition, most hits filed as inhibitors | 0.43% of 200,000 active | AID 1478; active = well fitted curve in the direction sought with a large enough effect; inconclusive = small, poorly fitted or top-dose-only effect, or another doubt; inactive = no such curve, though single readings can be large; an effect the other way counts as inactive or inconclusive;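 note: plate controls were neutral wells for no effect and buffer without enzyme for full effect; nearly all actives have a fitted effect of over 40% in size; top concentration of the series not given in the record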
#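 Read-out: AMC fluorescence (360 nm excitation, 450 nm emission), four reads over 2 min, first-to-third difference used. Conditions: cruzain 1.5 nM, Z-FR-AMC 2 uM, pH 5.5 acetate, 5 mM DTT, 0.01% Triton X-100.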
# MARV entry inh = inhibitors of Marburg virus binding or cell entry. Marburg virus pseudotyped entry inhibition, cell reporter; control for the full effect not named in the record; about a third of the inactives were read at about 46 µM. Potency, µM (top dose mostly 37.8 µM), for inactives: at the highest dose activity change, negative = inhibition, actives largely listed as inhibitors. 1.8% of 300,000 active. AID 540276; active = well fitted inhibition curve with a large enough effect; inconclusive = small, poorly fitted or top-dose-only effect, or effect the other way; inactive = flat fitted curve, though single readings scatter; tested in HEK293 cells; about a fifth of its hits are not listed in these tables; note: % is set by controls: 0 for no effect and ±100 for the full control effect; luciferase read-out
# 2A StopGo = lowers the luciferase signal of an FMDV 2A StopGo reporter | Potency, µM (doses to about 57.9 µM), without a hit: top-dose signal change, negative = less light | 1.2% of 410,000 active | human cells with a luciferase reporter of 2A StopGo recoding; control for the full effect not named in the record; active = well fitted falling curve with a large enough effect; inconclusive = small, poorly fitted or top-dose-only effect; inactive = no such curve, though single readings can be large or run the other way; tested in HEK293T cells; note: % is set by controls: 0 for no effect and ±100 for the full control effect; nearly all actives have a fitted effect of over 45% in size; luciferase light after 4 h
# NS1 function inh = influenza NS1 inhibition; Potency, µM (highest dose often 46.1 µM), for the others: at the top dose activity, positive = more growth; 0.4% of 270,000 active; S. cerevisiae slowed by influenza A NS1, growth recovery by OD600; AID 2326; note: actives are rising curves; nearly all actives have a fitted effect of over 50% in size
#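 S. cerevisiae expressing influenza A NS1, grown in glucose, washed, then diluted 1:100 into pH 6.0 -URA galactose medium with 23 nl compound. Growth recovery read as OD600; NS1-free strain serves as control.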
# Numbers without * were called inactive; ? = inconclusive; nt = no result given; & = joins results of further samples; [ ] = another dose, or the depositor's remark. Unless noted, calls come from the whole dose curve; as a rule, active means well fitted rising curve with a large enough effect; inconclusive means small, poorly fitted or top-dose-only effect; inactive means no such curve, though single readings can be large or run the other way. Potency is the fitted concentration of half-maximal effect.
SMILES,RE007 growth inh,LASV entry inh,SARS PLpro yeast,Cruzain inh noDet,Cruzain Triton,MARV entry inh,2A StopGo,NS1 function inh
CCN(CC)CC(=O)Nc1ccc(Oc2ccc(NC(=O)CN(CC)CC)cc2)cc1,-4%,-27%,0%,nt,nt,4µM*,-21%,3%
COc1ccc(CNC(=O)CN2C(=O)c3ccccc3C2=O)cc1,3%,nt,1%,nt,nt,nt,50%[activator],3%
CN1C(=O)C2(c3ccccc31)N(c1ccc(Br)cc1)C(=O)CS2(=O)=O (stereo not drawn),nt,?,nt,10µM*,-0.7%,nt,-26%,nt
CCN(CC)S(=O)(=O)c1ccc(S(=O)(=O)N2CCC(N3CCCCC3)CC2)cc1,-3%,4%,7%,nt,nt,7%[46.1 µM],1%,-5%
C=C(C)C(=O)Nc1cccc(C(C)=O)c1,12%,13%,-6%,3%,3.9%,-7%,4%,-7%
O=C1CSC(c2cccc(F)c2)N1c1ccccc1 (stereo not drawn),-7%,nt,0%,nt,nt,nt,-12%,3%
CCCn1c(SCc2nc(-c3ccccc3C)no2)nnc1-c1ccc(Cl)cc1,nt,1%[46.1 µM],nt,-5%,-7.6%,-4%[46.1 µM],0%,nt
CCC1Oc2ccccc2N(CC(=O)NCc2ccc(C)cc2)C1=O (stereo not drawn),nt,?,nt,-1%,0.0%,nt,25%,nt
COc1ccc(C(=O)NC(C)Cc2cnccn2)cc1OC1CCN(C(C)C)CC1 (stereo not drawn),-4%,5%,-1%,nt,nt,4%,-9%,-3%
O=C1CCCC2=C1C(c1cccs1)CC(=O)N2c1ccc(F)cc1 (stereo not drawn),2%,-5%[46.1 µM],3%,nt,nt,-26%[46.1 µM],-25%,nt
COc1ccc(/C(C)=N\n2cnnc2)cc1,12%,-7%,6%,-10%,3.2%,20%,-11%,-1%
Cc1c(-c2nc(-c3ccccc3F)no2)nnn1-c1cc(F)ccc1F,nt,4%[46.1 µM],nt,-11%,2.6%,nt,?,nt
O=C(Nc1ccnn1C1CCN(Cc2c(F)cccc2Cl)CC1)C1CCCC1,0%,nt,1%,nt,nt,nt,-2%,1%
COCc1nnc(NC(=O)C2CC(=O)N(c3ccc(C)c(Cl)c3)C2)s1 (stereo not drawn),0%,1%,nt,nt,nt,13%,10%,nt
COCCCN(Cc1ccco1)C(=O)Cn1ncc2c([nH]c3ccccc32)c1=O,2%,nt,-1%,nt,nt,nt,-28%,?
O=S(=O)(c1cc(Cl)ccc1Br)N1CCCCC1,-4%,?,-4%,3%,-1.4%,4%,-28%,7%
CC(C)C(O)C1CCN(Cc2nc(Cc3ccccc3Cl)no2)CC1 (stereo not drawn),0%,nt,2%,nt,nt,nt,27%,1%
O=C(NC1CCCC1)C(c1c[nH]c2ccccc12)N(C(=O)Cn1nnc(-c2ccc(Cl)cc2)n1)c1ccccc1 (stereo not drawn),10%,?,-8%,?,1.7%,-25%,20%,-4%
COc1c(C)cc(C(=O)C2CCCN(Cc3cccc4nccnc34)C2)cc1C (stereo not drawn),-15%,nt,0%,nt,nt,nt,-17%,3%
O=C(COc1cccnc1[N+](=O)[O-])NCc1ccco1,4%,16%,0%,nt,nt,26%[46.1 µM],-12%,7%
COc1ccc(-c2nc3ccccc3s2)cc1,?,nt,-3%,nt,nt,nt,-78%,-8%
Cc1cc(C)c(S(=O)(=O)Nc2ccncc2)cc1C,-4%,-21%[46.1 µM],0%,nt,nt,?,10%,21%
CCC(=O)N1CCN(c2ccc(Cl)cc2NC(=O)Cc2ccccc2)CC1,6%,1%,-1%,16%,-1.4%,-15%,-20%,-4%
COc1ccc(C(=O)NCCc2sc(-c3ccc(F)cc3)nc2C)cc1OC,nt,-28%[46.1 µM],nt,?,-4.8%,nt,-29%,nt
O=C(CSc1cccc[n+]1[O-])CSc1cccc[n+]1[O-],7.9µM*,-2%[46.1 µM],-5%,nt,nt,4%[46.1 µM],6%,-48%
COc1cccc(N2CC(NC(=O)c3cc4ccccc4o3)CC2=O)c1 (stereo not drawn),nt,9%[46.1 µM],nt,-15%,0.2%,nt,-18%,nt
Cc1ccc2c(c1)N(CC(=O)NCCCN1CC(C)CC(C)C1)C(=O)c1cccnc1O2 (stereo not drawn),-7%,nt,-12%,nt,nt,nt,-12%,0%
C/C(CC(=O)Nc1cc(Cl)ccc1C)=N\NC(N)=O,-1%,18%,-1%,nt,nt,5%,4%,3%
CCCCN(C(=O)c1ccc(N(C)S(=O)(=O)c2ccc(C)cc2)cc1)c1c(N)n(CCC)c(=O)[nH]c1=O,1%,6%,1%,nt,nt,-1%,8%,12%
CCn1c(C)cc(/C=C2\C(=O)NC(=O)N(c3ccccc3C)C2=O)c1C,10%,nt,1%,nt,nt,nt,-21%,4%
Cc1ccc(C(=O)NCC(=O)N2CCCCCC2)cc1,-2%,25%[46.1 µM],28%,nt,nt,?,40%[activator],-12%
CCOc1ccc(-c2c(C)sc3nc[nH]c(=O)c23)cc1,6%,?,4%,nt,nt,?,?,-4%
Cc1ccnc2c(N3C(=O)C4C5C=CC(C5)C4C3=O)cccc12 (stereo not drawn),9%,3%,-3%,-11%,-2.1%,4%[46.1 µM],-4%,14%
Cc1ccc(C(=O)Nc2cccc(C(=O)N3CCOCC3)c2)cc1Cl,2%,-3%,3%,nt,nt,-1%,14%,15%
CCOC(=O)C1=C(N)OC2=C(C(=O)CC(C)(C)C2)C1c1ccoc1 (stereo not drawn),1%,2%,4%,-1%,9.7%,5%,-12%,-8%
Cc1nn(C(=O)c2ccc(Cl)cc2)c(C)c1S(=O)(=O)N1CCOCC1,nt,19%[46.1 µM],nt,-10%,-0.8%,nt,-5%,nt
CCOC(=O)c1ccc(N2CSC3=C(C#N)C(c4ccc(OC)cc4OC)CC(=O)N3C2)cc1 (stereo not drawn),-15%,nt,11%,?,3.0%,4%,-22%,-30%
COc1cc2ccccc2cc1C(=O)Nc1nnc(-c2ccncc2)o1,-25%,2%,-6%,nt,nt,-2%,0%,-26%
Cc1ccc(S(=O)(=O)N2CCN(C(=O)COC(=O)/C=C/c3ccc(Cl)cc3)CC2)c(C)c1,9%,4%,nt,nt,nt,-16%,-23%,nt
COc1ccc(CCNC(=O)CCCCCNC(=O)N2CCn3c2nc2ccccc23)cc1OC,-1%,nt,1%,nt,nt,nt,?,-17%
Cc1ccc(NC(=O)CSc2nc3c(oc4ccccc43)c(=O)n2-c2ccc(F)cc2)c(C)c1,nt,nt,nt,-28%,-1.7%,-29%[46.1 µM],0%,nt
Cc1nn(C)c(C)c1S(=O)(=O)N(CC(=O)NCCc1ccccc1)c1ccc(C(C)C)cc1,nt,-19%[46.1 µM],nt,?,-0.3%,3%[46.1 µM],-26%,nt
Cc1ccccc1CSCC(=O)c1c(N)n(C)c(=O)n(C)c1=O,15%,23%,-1%,-3%,-2.5%,-3%,53%[activator],-4%
Cc1cc(/C=N/NC(=O)c2ccccn2)c(C)n1-c1cccc([N+](=O)[O-])c1,-8%,12%,1%,nt,nt,3%[46.1 µM],21%,nt
Cc1ccc(N2CC3=C(C2=O)C(c2ccc(Br)cc2)NC(=O)N3C)cc1 (stereo not drawn),nt,-2%[46.1 µM],nt,2%,-0.5%,-7%[46.1 µM],0%,nt
COc1cccc(/C(O)=C2\C(=O)C(=O)N(c3ccccn3)C2c2ccccc2OC)c1 (stereo not drawn),-5%,5%,-8%,-6%,-6.3%,1%,9%,-1%
CC(C)(C)c1ccc(C(=O)NCC(=O)OCC(=O)NC(=O)NC2CCCC2)cc1,-13%,?,-16%,nt,nt,3%,24%,nt
COc1ccccc1NC(=O)/C=C1\NC(=O)CS1,-11%,-10%,-1%,nt,nt,-9%[46.1 µM],30%,0%
CS(=O)(=O)N(CC(=O)Nc1cccnc1)c1ccc2c(c1)OCCO2,1%,7%,6%,-5%,1.6%,12%,nt,3%
CC(=O)c1cc(C#N)c(NCc2cc(-c3ccccc3)no2)nc1C,6%,21%,1%,nt,nt,3%,2%,nt

# The list continues.
SMILES,RE007 growth inh,LASV entry inh,SARS PLpro yeast,Cruzain inh noDet,Cruzain Triton,MARV entry inh,2A StopGo,NS1 function inh
N/C(=N/OC(=O)c1ccccc1Cl)c1ncc([N+](=O)[O-])s1,?,?,-20%,nt,nt,?,18%,-89%
CC(C)CCNC(=O)C1CC(c2cccc(F)c2)=NO1 (stereo not drawn),-10%,nt,0%,nt,nt,nt,-4%,-6%
COc1ccc(N2CC(C(=O)Nc3nnc(SCCC4OCCO4)s3)CC2=O)cc1 (stereo not drawn),-7%,nt,-6%,nt,nt,nt,3%,-1%
Cc1cc(OCC(=O)NC(C)C)cc(C)c1Cl,-26%,4%,-1%,1%,0.4%,4%,?,-7%
CC(C)OCCCNC(=O)CN1C(=O)CSc2ccc(S(=O)(=O)N3CCCCC3)cc21,4%,-1%[46.1 µM],2%,-6%,1.2%,nt,31%&-11%[activator],-8%
CC(/C=C/c1ccc2c(c1)OCO2)=N/NC(=O)c1cccnc1,-5%,-1%,2%,-21%,-8.9%,-4%[46.1 µM],23%,6%
Cc1ccc(CC(=O)Nc2ccccc2-c2ccccc2)cc1C,24%,4%,1%,-10%,-3.5%,-27%,-33%,-5%
Cn1cccc1-c1nc2ccc(NC(=O)c3ccc([N+](=O)[O-])cc3)cc2[nH]1,12%,15%,9%,-13%,0.8%,26%,-17%,7%
Cc1ccccc1CNC(=O)c1ccccc1N(C)S(=O)(=O)c1ccccc1,9%,-29%,-6%,nt,nt,?,7%,-7%
Cc1ccc(-c2nc3ccccc3c(=O)n2-c2ccccn2)cc1,20%,24%,-15%,8%,-0.7%,26%,-2%,-5%
CCC(=NC)C1=C(O)CC(c2ccccc2)CC1=O (stereo not drawn),-18%,?,-12%,nt,nt,16%,39%[activator],-91%
CCC(=O)Nc1ccc(S(=O)(=O)c2ccc(NC(=O)CC)cc2)cc1,30%,9%,-6%,13%,0.6%,-8%,-24%,?
c1ccc(CSc2nnc(Cc3ccccn3)o2)cc1,1%,21%,-6%,-1%,-0.6%,3%,97%[activator],2%
COc1cccc(C=N[C@@H](CO)[C@@H](O)c2ccc([N+](=O)[O-])cc2)c1O,1%,6%[46.1 µM],0%,nt,nt,-6%[46.1 µM],-27%,-2%

# Assay outcomes (PubChem BioAssay)
